D2 ag: activates the human D2 dopamine receptor. hit rate 0.084% among 360,000. activation, % (no concentration beside the values). P14416. DiscoveRx PathHunter D2 beta-arrestin, luminescence, 90 min; 100% = 57 uM dopamine signal. AID 624465; in the data active = activation above about 40%; inconclusive = about 15% to 40%; inactive = below about 15%; also: compound concentration not given in the record; the text of the record calls up to 30% inactive
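DiscoveRx PathHunter D2 beta-arrestin cells (2,100/well) attached overnight, then compound-stimulated 90 min at 37 C in HBSS/10 mM HEPES/0.1% Tween-20 buffer; beta-galactosidase complementation read by luminescence after 1 h at ambient temperature. Dopamine 57 uM final (EC100) as control.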
D2 PAM: potentiates the human D2 dopamine receptor allosterically. P14416. DiscoveRx D2 beta-arrestin cells, luminescence, 90 min; 100% = 57 uM dopamine signal. potentiation, % (test concentration not listed). hit rate 0.23% among 360,000; active = potentiation of 50% or more; inconclusive = 30% to 50%; inactive = 30% or less;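 also: compound concentration not given in the record; tested on top of an EC20 dose of dopamine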
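PathHunter D2 cells, attached overnight at 37 deg C, received compound in DMSO plus dopamine at EC20 (50 nM final) for 90 min at 37 deg C. Beta-arrestin recruitment was read as luminescence after 1 h with detection reagent at ambient temperature.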
TRPML1 agonist: activates the human TRPML1 channel; Q9GZU1; TRPML1-expressing cells, Ca2+ dye fluorescence, FDSS; host cell line not named in the record; reference of the full effect not given here; activation, % (no concentration beside the values); hit rate 0.12% among 410,000; AID 624414; in the data active = activation above about 50%; inconclusive = about 30% to 50%; inactive = below about 30%; also: 0% is about no effect; the text of the record puts the active cut at 80%
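Cells: TRPML1-DL, 1X Tet inducer, ~16 h at 37 degrees C/5% CO2. Dye: ABD Ca8 no-wash + quencher, 45-90 min RT. Read: 10 s baseline, compound add, 110 s agonist phase; 54-4 EC80 (4uM final), 110 s antagonist phase.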
PINK1 modulator: PINK1 expression modulation; PINK1 immunofluorescence, high-content cytometry, 24 h; Potency, µM (top dose mostly 76.6 µM), without a hit: top-dose activation (PINK1 increase), hits mostly activators; hit rate 0.2% among 410,000; active = well fitted activation curve with a large enough effect; inconclusive = small, poorly fitted or top-dose-only effect; inactive = flat fitted curve, though single readings scatter; cell line not stated here;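 also: potency is read from the fitted curve at half-maximal effect; % of control where 0% means no effect; nearly all actives have a fitted effect of over 65% in size; a mitochondrial uncoupler was the plate control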
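A stable cell line was treated with compounds at 5 concentrations for 24 hours, with CCCP as control. PINK1 levels and mitochondrial localization were measured by immunofluorescence with mitochondrial, cell and nuclear markers after fixation, read by laser-scanning cytometry.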
TRPML1 inh: human mucolipin-1 channel inhibition. Q9GZU1. hit rate 0.02% among 390,000. TRPML1-inducible cells, Ca2+ dye fluorescence, FDSS; active compounds read low; inhibition of EC80 agonist-evoked calcium signal. AID 624415. activity change, negative = inhibition, % (no concentration beside the values); in the data active means activity change below about -50%; inconclusive means about -30% to -50%; inactive means above about -30%;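 also: stimulus is agonist 54-4 at its EC80 concentration; % is scaled to controls: 0 for no effect and ±100 for the full control effect; compound concentration not given in the record; the text of the record puts the active cut at -80%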
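Calcium fluorescence in TRPML1-DL cells induced overnight with Tet: a 110 s read after compound pin addition, then a 110 s antagonist read after challenge with 54-4 at 4 uM final (EC80).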
Six1-Eya2 blk: Six1/Eya2 interaction inhibition; AID 651725; AlphaScreen GST-Six1/His-Eya2 binding, biochemical; active compounds read low; control for the full effect not named in the record; activity change, % (no concentration beside the values); Q15475+O00167; hit rate 0.56% among 360,000; in the data active = activity change below about -65%; inconclusive = about -30% to -65%; inactive = above about -30%; also: % is scaled to controls: 0 for no effect and ±100 for the full control effect
Target sequence (O00167 whole entry, looked up): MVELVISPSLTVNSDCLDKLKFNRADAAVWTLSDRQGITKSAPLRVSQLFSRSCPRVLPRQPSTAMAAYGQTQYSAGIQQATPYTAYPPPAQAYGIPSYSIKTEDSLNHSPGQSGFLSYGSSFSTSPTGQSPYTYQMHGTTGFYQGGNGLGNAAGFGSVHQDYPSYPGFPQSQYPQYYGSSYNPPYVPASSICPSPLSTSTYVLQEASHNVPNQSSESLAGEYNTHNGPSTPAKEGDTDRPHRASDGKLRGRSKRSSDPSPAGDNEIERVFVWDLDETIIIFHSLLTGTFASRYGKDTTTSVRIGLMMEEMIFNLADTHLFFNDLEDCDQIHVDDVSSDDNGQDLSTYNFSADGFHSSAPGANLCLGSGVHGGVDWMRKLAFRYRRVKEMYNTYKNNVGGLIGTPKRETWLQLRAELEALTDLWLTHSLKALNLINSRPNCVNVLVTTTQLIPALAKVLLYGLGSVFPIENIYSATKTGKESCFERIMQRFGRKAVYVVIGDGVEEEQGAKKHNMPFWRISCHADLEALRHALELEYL
Target sequence (Q15475 whole entry, looked up): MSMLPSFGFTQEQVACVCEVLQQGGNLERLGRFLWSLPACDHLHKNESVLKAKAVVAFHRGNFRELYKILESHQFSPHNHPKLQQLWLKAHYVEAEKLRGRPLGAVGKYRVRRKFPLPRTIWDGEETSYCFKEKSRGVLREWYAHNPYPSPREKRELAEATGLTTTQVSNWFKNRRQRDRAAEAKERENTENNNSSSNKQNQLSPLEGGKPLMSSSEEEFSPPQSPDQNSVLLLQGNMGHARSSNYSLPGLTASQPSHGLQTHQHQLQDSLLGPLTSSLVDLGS
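GST-Six1 + His-Eya2 (5X stock: 250/500 nM); Tris pH 8.0, 300 mM NaCl, 0.05% BSA, 0.02% Tween 20; GSH donor/Ni acceptor beads; 1 h 37 °C dark; AlphaScreen readout.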
The depositor's hits bear a star; ? = inconclusive; / = no result given; & = joins results of further samples; [ ] = another dose, or the depositor's remark.

item	smiles	D2 ag	D2 PAM	TRPML1 agonist
1	O=C(CSc1nnc(COc2ccccc2F)n1-c1ccccc1)NC1CCS(=O)(=O)C1 (stereo unspecified)	-6.9	-14	0.0
2	CCOC(=O)C1CCCN(C(=O)c2ccc(S(=O)(=O)Nc3ccccc3OC)cc2)C1 (stereo unspecified)	-5.0	-5	-0.5
3	CCNC(=O)N(C)c1c(CC)nc2ccc(C(=O)N3CCN(S(=O)(=O)CC)CC3)cn12	-3.5	-14	0.0
4	O=C(CN1CCCN(Cc2cccc(F)c2)S1(=O)=O)Nc1ccc2c(c1)OCCO2	/	/	0.9
5	O=C(COC(=O)C(c1ccccc1)c1ccccc1)NCc1ccco1	-1.3	-5	3.0
6	CCOC(=O)c1cccc(NC(=O)c2ccc(NC(=O)C3CCCO3)cc2)c1 (stereo unspecified)	3.1	-3	0.8
7	Cc1ccnc(NS(=O)(=O)c2ccc(NC(=O)c3oc4ccc(F)cc4c3C)cc2)n1	-3.9	10	-0.6
8	CCOc1ccc(S(=O)(=O)N2CCN(Cc3ccco3)CC2)cc1	-1.3	-10	-0.5
9	CCOc1ccc2[nH]c(=O)c(CN(Cc3cccs3)Cc3nnnn3C(C)(C)CC)cc2c1	-1.0	-19	3.2
10	O=C(c1[nH]nc2c1CCc1ccccc1-2)N1CCN(Cc2ccc3c(c2)OCO3)CC1	?	-23	2.7

item	PINK1 modulator	TRPML1 inh	Six1-Eya2 blk
1	-0.4%	-5	11
2	1.9%	20	0
3	0.9%	-15	2
4	1.5%	-12	/
5	2.6%	17	-9
6	3.4%	-7	-4
7	-0.5%	-6	-5
8	0.4%	1	-7
9	/	16	-3
10	-1.3%	17	-8

Next results follow.
item	smiles	D2 ag	D2 PAM	TRPML1 agonist
11	COc1ccc(NC(=O)c2ccccc2-c2ccccc2)cc1	-2.3	-7	2.0
12	COc1ccc(C2c3c(c(C)c(C)oc3=O)Oc3c(C)c(C)oc(=O)c32)cc1	-2.6	2	0.7
13	CCOc1ncccc1C(=O)N1CCN(c2cc(Cl)ccc2C)CC1	3.4	0	1.6
14	COc1ccc(-c2ncncc2-c2csc(C)n2)c(O)c1OC	-2.6	5	1.1
15	Cc1cccc(-n2c(Cc3cc(=O)[nH]c(=O)[nH]3)nnc2SCC(=O)N2CCc3ccccc32)c1	-2.5	-7	0.5
16	CC(C)(C)NC1=CC(=O)OC12CCCCC2	2.3	9	-0.5
17	CCOc1ccccc1OCCCC(=O)Nc1nc2ccccc2[nH]1	-1.8	-2	0.8
18	Cn1cnnc1SC1c2cccc3cccc(c23)C1NS(=O)(=O)c1ccccc1 (stereo unspecified)	-1.3	-4	0.9
19	COc1ccc(CNC(=O)Cn2cccc2C(=O)c2ccccc2C)cc1	-0.1	-1	2.9&0.3
20	CNc1nc(-c2ccccn2)nnc1-c1ccccc1	-1.1	-5	-0.5

item	PINK1 modulator	TRPML1 inh	Six1-Eya2 blk
11	1.2%	5	1
12	4.5%	0	3
13	0.5%	10	-1
14	-0.1%	-10	2
15	?	-12	3
16	1.4%	-17	5
17	6.6%	25	6
18	1.2%	4	1
19	1.1%&0.2%	7&-8	11
20	-2.1%	2	-93*

Arranged by count of non-hydrogen atoms (highest first): part of the list above.
item	smiles	D2 ag	D2 PAM	TRPML1 agonist
9	CCOc1ccc2[nH]c(=O)c(CN(Cc3cccs3)Cc3nnnn3C(C)(C)CC)cc2c1	-1.0	-19	3.2
7	Cc1ccnc(NS(=O)(=O)c2ccc(NC(=O)c3oc4ccc(F)cc4c3C)cc2)n1	-3.9	10	-0.6
4	O=C(CN1CCCN(Cc2cccc(F)c2)S1(=O)=O)Nc1ccc2c(c1)OCCO2	/	/	0.9
18	Cn1cnnc1SC1c2cccc3cccc(c23)C1NS(=O)(=O)c1ccccc1 (stereo unspecified)	-1.3	-4	0.9
12	COc1ccc(C2c3c(c(C)c(C)oc3=O)Oc3c(C)c(C)oc(=O)c32)cc1	-2.6	2	0.7
19	COc1ccc(CNC(=O)Cn2cccc2C(=O)c2ccccc2C)cc1	-0.1	-1	2.9&0.3
5	O=C(COC(=O)C(c1ccccc1)c1ccccc1)NCc1ccco1	-1.3	-5	3.0
8	CCOc1ccc(S(=O)(=O)N2CCN(Cc3ccco3)CC2)cc1	-1.3	-10	-0.5
14	COc1ccc(-c2ncncc2-c2csc(C)n2)c(O)c1OC	-2.6	5	1.1
20	CNc1nc(-c2ccccn2)nnc1-c1ccccc1	-1.1	-5	-0.5

item	PINK1 modulator	TRPML1 inh	Six1-Eya2 blk
9	/	16	-3
7	-0.5%	-6	-5
4	1.5%	-12	/
18	1.2%	4	1
12	4.5%	0	3
19	1.1%&0.2%	7&-8	11
5	2.6%	17	-9
8	0.4%	1	-7
14	-0.1%	-10	2
20	-2.1%	2	-93*

(list continues)
item	smiles	D2 ag	D2 PAM	TRPML1 agonist
21	COc1ccccc1OCC(=O)N/N=C1/C=C(C)CC1	-6.0	-1	-1.1
22	CC(=O)SCC(C)C(=O)NCc1ccccc1 (stereo unspecified)	-2.4	-8	0.3
23	CCOC(=O)c1c(/N=C/C2C(=O)CC(C)(C)CC2=O)sc(C)c1C	-2.9	8	0.3
24	O=C(NCc1ccccc1Cl)C1CCC(=O)N(C2CC2)C1 (stereo unspecified)	0.5	-17	0.4
25	CCc1ccc(Nc2n[n+](-c3ccccc3)c(-c3ccc(OC)c(Br)c3)s2)cc1	-3.8	-25	0.3
26	N#Cc1ccc(-c2csc(NC(=O)C3CC3)n2)cc1	0.6	-1	-0.5
27	CCOC(=O)[C@]12CCCC=C1N(Cc1cccc3ccccc13)C(=O)[C@H](CC(=O)N1CCCCC1)C2	/	/	-0.8
28	CCOc1ccc2nc(NC(=O)CSCC(=O)Nc3cc(C)on3)sc2c1	-2.0	-10	-0.7
29	COc1cccc(CSc2nc3ccncc3n2CC(=O)Nc2ccc(OC)c(OC)c2OC)c1	/	/	-0.6
30	CCOc1ccc(NS(=O)(=O)c2ccc(NC(=S)NC(=O)CC(C)C)cc2)cc1	-3.5	-11	7.4

item	PINK1 modulator	TRPML1 inh	Six1-Eya2 blk
21	0.0%	57	-2
22	?	31	7
23	13%	10	3
24	3.9%	16	4
25	0.8%	-8	-12
26	0.5%	2	-5
27	5.3%	/	-8
28	9.0%	0	1
29	-0.2%	-7	/
30	?	-1	-19

Continuation.
item	smiles	D2 ag	D2 PAM	TRPML1 agonist
31	COc1ccc(NC(=O)c2ccccc2C)cc1	-3.4	-2	-0.1
32	O=C(CSc1ccccn1)NCc1ccc2c(c1)OCO2	-6.3	-3	0.1
33	CCCCc1c(-c2ccc(Br)cc2)ncn1CCc1ccccc1OC	/	/	0.9
34	CSC1=NSC2=NC(=O)/C(=C\c3cccs3)C(=N)N12	-3.8	1	-0.1
35	CN(C)CCCN(C(=O)c1cc2ccccc2oc1=O)c1nc2ccc(F)cc2s1	-0.4	-19	0.3
36	O=C(CCc1ccccc1)Nc1ccc2c(c1)OCO2	2.3	-31	0.7
37	NC(=O)c1nsc(C(=O)N(c2cccc(F)c2)C(C(=O)NC2CCCC2)c2ccc(O)cc2)c1N (stereo unspecified)	-4.0	-2	0.1
38	CN1C(C(=O)c2ccccc2)=C(N)c2ccccc2S1(=O)=O	-2.1	-1	-0.7
39	O=C(N/N=C/c1ccc(Br)s1)c1ccc([N+](=O)[O-])cc1	-2.0	-15	-0.3
40	CCc1noc(C)c1C(=O)N1CCCC(CCC(=O)NCc2cccc(OC)c2)C1 (stereo unspecified)	0.4	-7	0.1

item	PINK1 modulator	TRPML1 inh	Six1-Eya2 blk
31	0.9%	10	3
32	-0.6%	-4	-2
33	?	/	-14
34	12%	-9	0
35	7.0%	-9	2
36	0.4%	-16	33
37	14%	-6	3
38	2.3%	18	-5
39	3.8%	7	6
40	-1.7%	1	7

The listing continues:
item	smiles	D2 ag	D2 PAM	TRPML1 agonist
41	CN(C(=S)NC(=O)C12CC3CC(CC(C3)C1)C2)c1ccc(O)cc1	7.9	27	-1.1
42	COc1ccc(C2=Nn3c(nnc3-c3ccncc3)SC2)cc1	-1.7	-12	1.1
43	OC(c1cccnc1)c1cccs1 (stereo unspecified)	2.1	0	4.8
44	CC1Cc2cc(S(=O)(=O)CCC(=O)NCc3ccc(Cl)cc3)ccc2N1C(=O)C1CC1 (stereo unspecified)	/	/	0.5
45	CCN1C(=O)C(CC(=O)Nc2cc(C)ccc2C)SC1=Nc1ccc(S(N)(=O)=O)cc1 (stereo unspecified)	-1.3	-2	1.0
46	CN1CCN(C(=O)CCCOc2ccc(Cl)cc2Cl)CC1	0.8	6	1.3
47	CC(=O)Nc1ccc(CCCCc2ccccc2)cc1	-0.8	-7	-1.2
48	O/N=C/c1cc(Br)cc(Br)c1OCc1ccccc1	1.9	15	-0.3
49	C=CCn1c(C)cc(C(=O)COC(=O)COc2ccccc2C#N)c1C	-2.8	-9	3.2
50	CC(c1ccccc1)n1cnc2ccccc21 (stereo unspecified)	-0.2	-21	1.7

item	PINK1 modulator	TRPML1 inh	Six1-Eya2 blk
41	3.5%	-5	-7
42	-3.8%	-9	-13
43	2.7%[38.3 µM]	-3	3
44	5.7%	-2	/
45	6.6%[38.3 µM]	6	-1
46	0.7%	2	2
47	3.6%	20	6
48	-0.6%	-13	9
49	0.1%	-8	-10
50	-1.7%	20	2

Later entries:
item	smiles	D2 ag	D2 PAM	TRPML1 agonist
51	COc1cccc(C(=O)Nc2ccc(NC(=O)C3CC3)nc2)c1	4.3	-1	-0.2
52	COc1ccc(N2CCN(C(=O)c3ccc4c(c3)CC(c3ccccc3)OC4=O)CC2)cc1 (stereo unspecified)	0.0	-32	1.3
53	CCCCn1cc(S(=O)(=O)c2ccc(Cl)cc2)c(=O)c2cc(F)c(N3CCCCC3)cc21	/	/	-0.1
54	CC1(c2ccc(Cl)cc2)CC(C)(C)N(C(=O)c2ccccc2)c2ccccc21 (stereo unspecified)	/	/	0.0
55	O=C(Cn1cc(S(=O)(=O)N2CCN(c3ccccc3F)CC2)c2ccccc2c1=O)NCCCN1CCCCCC1	3.2	-20	1.7
56	COc1ccc(N(CC(=O)N2CCC(Cc3ccccc3)CC2)S(C)(=O)=O)cc1	-0.6	-3	1.7
57	CC(C)C(NC=C1C(=O)OC(C)(C)OC1=O)C(=O)O (stereo unspecified)	0.4	-4	-0.4
58	O=[N+]([O-])c1cc(/C=N\Nc2ccccn2)ccc1Cl	-2.9	2	0.2

item	PINK1 modulator	TRPML1 inh	Six1-Eya2 blk
51	2.2%	0	0
52	5.7%	-13	-10
53	-0.1%	-8	/
54	3.2%	2	/
55	-1.5%	-19	-7
56	-2.3%	-2	-1
57	3.7%[38.3 µM]	3	7
58	3.4%	13	1

Source: PubChem

Outcome played no part in choosing rows; 1% or so of the library scored in one or more.
